High-throughput results as filed in PubChem BioAssay.
RE007 growth inh: qHTS Assay for Inhibitors of the HIV-1 protein Vpr. S. pombe RE007 Vpr strain, BacTiter-Glo ATP luminescence, 24 h; control for the full effect not named in the record. Potency, µM (titrated, usually from 92.2 µM), for the others: at the top dose activity change, negative = less growth. hit rate 0.21% among 360,000; active = well fitted falling curve with a large enough effect; inconclusive = small, poorly fitted or top-dose-only effect; inactive = no such curve, though single readings can be large or run the other way;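 further: on the % scale 0 is the no-effect control and ±100 the full control effect; nearly all actives have a fitted effect of over 50% in size; the assay follows cell death caused by Vpr and the record does not say whether a fall means rescue or toxicity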
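Fission yeast strain RE007, carrying one chromosomally integrated HIV-1 vpr copy, was seeded at OD 0.01 in PMG+AL medium with 23 nL pinned compound. After 24 h at 30 °C and 99% humidity, viability was read by BacTiter-Glo luminescence.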
Marburg entry inh: qHTS for inhibitors of binding or entry into cells for Marburg Virus; Marburg virus pseudotyped entry inhibition, cell reporter; control for the full effect not named in the record; about a third of the inactives were read at about 46 µM; Potency, µM (doses to about 37.8 µM), for the others: at the highest dose activity change, negative = inhibition, actives largely listed as inhibitors; hit rate 1.8% among 300,000; AID 540276, 2011; active = well fitted inhibition curve with a large enough effect; inconclusive = small, poorly fitted or top-dose-only effect, or effect the other way; inactive = flat fitted curve, though single readings scatter; tested in HEK293 cells; about a fifth of its hits are not listed in these tables; further: on the % scale 0 is the no-effect control and ±100 the full control effect; luciferase read-out
SARS PLpro yeast: qHTS of Yeast-based Assay for SARS-CoV PLP; hit rate 0.19% among 330,000; Potency, µM (titrated, usually from 32.9 µM), for inactives: at the highest dose activity, positive = growth rescue; S. cerevisiae expressing SARS-CoV PLpro, growth rescue; control for the full effect not named in the record; active means well fitted rising curve with a large enough effect; inconclusive means small, poorly fitted or top-dose-only effect; inactive means no such curve, though single readings can be large or run the other way; further: 0% is about no effect; nearly all actives have a fitted effect of over 55% in size; growth read by luminescence after 48 h
StopGo reporter: High Throughput Screening for Foot and Mouth Disease Virus Antivirals; AID 1159524, 2015; human cells with a luciferase reporter of 2A StopGo recoding; control for the full effect not named in the record; hit rate 1.2% among 410,000; Potency, µM (series often up to 57.9 µM), inactives show at the top dose signal change, negative = less light; active = well fitted falling curve with a large enough effect; inconclusive = small, poorly fitted or top-dose-only effect; inactive = no such curve, though single readings can be large or run the other way; tested in HEK293T cells; further: on the % scale 0 is the no-effect control and ±100 the full control effect; nearly all actives have a fitted effect of over 45% in size; luciferase light after 4 h
Lassa entry inh: qHTS for Inhibitors of binding or entry into cells for Lassa Virus; Lassa virus pseudotype entry inhibition, cell reporter; control for the full effect not named in the record; hit rate 1.2% among 300,000; Potency, µM (titrated, usually from 37.9 µM), for the others: at the top dose activity change, negative = inhibition, usual class: inhibitors; active means well fitted inhibition curve with a large enough effect; inconclusive means small, poorly fitted or top-dose-only effect, or effect the other way; inactive means flat fitted curve, though single readings scatter; tested in HEK293 cells; further: on the % scale 0 is the no-effect control and ±100 the full control effect; nearly all actives have a fitted effect of over 50% in size; luciferase read-out
Cruzain inh noDet: qHTS Assay for Promiscuous and Specific Inhibitors of Cruzain (without detergent); Cruzipain (Trypanosoma cruzi), P25779; AID 1476, 2009; purified cruzain, Z-FR-AMC fluorescence, no detergent; hit rate 2.3% among 200,000; Potency, µM, without a hit: max response, negative = inhibition, hits mostly inhibitors;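 further: plate controls were enzyme without inhibitor for no effect and buffer without enzyme for full effect; nearly all actives have a fitted effect of over 40% in size; top concentration of the series not given in the record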
Target sequence (P25779 123-467 limits assumed): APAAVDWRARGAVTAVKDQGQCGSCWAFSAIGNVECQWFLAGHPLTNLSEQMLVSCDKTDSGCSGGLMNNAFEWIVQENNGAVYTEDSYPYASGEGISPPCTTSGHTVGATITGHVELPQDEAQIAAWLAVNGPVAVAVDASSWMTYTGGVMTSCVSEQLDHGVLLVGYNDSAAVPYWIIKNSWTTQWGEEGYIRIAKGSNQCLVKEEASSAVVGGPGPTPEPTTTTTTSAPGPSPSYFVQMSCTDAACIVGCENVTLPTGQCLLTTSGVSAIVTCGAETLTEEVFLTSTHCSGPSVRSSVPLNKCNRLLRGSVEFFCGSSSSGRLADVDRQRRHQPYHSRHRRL
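Detergent-free condition (0.00005% Triton X-100) in acetate buffer pH 5.5 with DTT. 1.5 nM enzyme and compound were pre-mixed 15 min, then 2 uM Z-FR-AMC substrate added; reaction progress from fluorescence change between first and third reads (60 s).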
NS1 inh: qHTS Assay for Inhibitors of Influenza NS1 Protein Function | S. cerevisiae slowed by influenza A NS1, growth recovery by OD600 | Potency, µM (doses to about 46.1 µM), for the others: at the highest dose activity, positive = more growth | hit rate 0.4% among 270,000 | AID 2326, 2010; active means well fitted rising curve with a large enough effect; inconclusive means small, poorly fitted or top-dose-only effect; inactive means no such curve, though single readings can be large or run the other way; further: nearly all actives have a fitted effect of over 50% in size
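S. cerevisiae expressing influenza A NS1, grown in glucose, washed, then diluted 1:100 into pH 6.0 -URA galactose medium with 23 nl compound. Growth recovery read as OD600; NS1-free strain serves as control.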
Cruzain inh Det: qHTS Assay for Promiscuous and Specific Inhibitors of Cruzain (with detergent); Cruzipain (Trypanosoma cruzi), P25779; purified cruzain, Z-FR-AMC fluorescence, 0.01% Triton; Potency, µM, inactives show max response, negative = inhibition, actives largely listed as inhibitors; hit rate 0.43% among 200,000;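 further: plate controls were neutral wells for no effect and buffer without enzyme for full effect; nearly all actives have a fitted effect of over 40% in size; top concentration of the series not given in the record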
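Detergent-containing run (0.01% Triton X-100) in acetate buffer pH 5.5 with 5 mM DTT: enzyme at 1.5 nM final, 15 min compound preincubation at room temperature, then 2 uM Z-FR-AMC substrate. Activity taken as 60 s fluorescence increase at 360/450 nm.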
An asterisk follows results filed as active; ? = inconclusive; . = no result given; & = joins results of further samples; [ ] = dose if it differs, or a comment. Unless noted, the call rests on the fitted dose curve; in most records, active means well fitted curve in the direction sought with a large enough effect; inconclusive means small, poorly fitted or top-dose-only effect, or another doubt; inactive means no such curve, though single readings can be large; an effect the other way counts as inactive or inconclusive. Potency means the concentration at half of the fitted maximal effect. Rows are unselected. Share with any hit: about 4.6%.

Results follow in this order: RE007 growth inh	Lassa entry inh	SARS PLpro yeast	StopGo reporter	Cruzain inh noDet	NS1 inh	Marburg entry inh	Cruzain inh Det
COc1ccc(OC)c(NC(=O)Cn2c(=O)n(Cc3ccco3)c(=O)c3cc(OC)c(OC)cc32)c1
→ .	10%[46.1 µM]	.	-13%	13%	.	?	-1.4%
CS/C(=N\S(=O)(=O)c1cccs1)Nc1ccc(F)cc1
→ 11%	25%	7%	12%	-10%	-8%	26%	-1.4%
Cc1ccccc1CN1C(=O)c2ccccc2Sc2ccc(C(=O)O)cc21
→ -2%	9%&10%[46.1 µM]	2%	-19%&-15%	5%	.	-16%&-16%[46.1 µM]	0.0%
O=C(N/N=C/c1ccc(N2CCOCC2)o1)c1ccccc1[N+](=O)[O-]
→ 7%	?	21%	-15%	4%	16%	?	-6.6%
CN(/N=C/c1ccc(N(C)C)cc1)C1=NS(=O)(=O)c2ccccc21
→ -6%	-5%	3%	-17%	.	4%	?	.
N#Cc1ccccc1Cn1c(=O)n(-c2cccc(C(F)(F)F)c2)c(=O)c2sccc21
→ .	5%[46.1 µM]	.	-21%	-11%	.	?	-5.8%
COCCCNC(=O)CC1Oc2ccccc2NC1=O (stereo not drawn)
→ -9%	.	2%	-25%	3%	?	.	4.9%
CC(=O)c1c(C)[nH]c(C(=O)COC(=O)c2ccc(C)s2)c1C
→ 9%	11%[46.1 µM]	0%	17%	.	.	8%[46.1 µM]	.
Cc1ccc(NC(=O)c2cnn(-c3ccccc3)c2NC(=O)c2ccco2)cc1C
→ 0%	0%	5%	-22%	4%	-39%	-1%	-5.9%
O=C(N/N=C/c1ccncc1)c1ccc(-n2cccc2)cc1
→ -13%	0%	-19%	15%	-14%	23%	1%	-6.2%
O=C(O)C1CC=CCC1C(=O)NCc1cn2ccccc2n1 (stereo not drawn)
→ -3%	.	-5%	-11%	-7%	2%	.	-0.1%
Cc1cccc(C)c1NC(=S)N/N=C1\CC2CC=CC12 (stereo not drawn)
→ -10%	8%	-4%	?	.	2%	-18%[46.1 µM]	.
Cc1ccc(S(=O)(=O)c2nnn(-c3cccc(F)c3)c2N)cc1
→ -2%	-1%	0%	3%	.	.	-15%	.
COC(=O)c1ccc(Oc2cc(C)nc(NCc3ccccc3)n2)cc1
→ 0%	-8%	1%	-16%	-2%	-8%	-13%	-9.3%
CC(C)(C)c1ccc(OCc2ccc(C(=O)NCc3cccnc3)o2)cc1
→ 1%	.	0%	-13%	.	-12%	.	.
NS(=O)(=O)c1cc(C(=O)N2CCc3ccccc32)c(Cl)cc1Cl
→ -9%[3.69 µM]	4%	0%	-24%	6%	-13%	10%	-12%
CC1=NN(c2ccc(Cl)cc2)C(=O)C1C(c1ccccc1O)c1c(C)[nH]n(-c2ccc(Cl)cc2)c1=O (stereo not drawn)
→ -9%	6%	?	-25%	3%	29%	-4%	-10%
COc1ccc(OC)c(-c2cc(C(=O)N/N=C/c3cc(OC)c(OC)cc3OC)c3ccccc3n2)c1
→ -2%	25%[46.1 µM]	.	-27%	.	.	0%[46.1 µM]	.
O=C(O)c1ccc2c(c1)c1c3n2CCNC3CCC1 (stereo not drawn)
→ 1%	0%	-2%	-9%	.	9%	?	.
CC(C(=O)N1CCN(Cc2ccc3c(c2)OCO3)CC1)n1cc([N+](=O)[O-])cn1 (stereo not drawn)
→ 20%	-7%	2%	-11%	.	-5%	10%[46.1 µM]	.
CC(=O)Nc1ccc(NC(=O)c2ccc3c(c2)CCN3S(C)(=O)=O)cc1
→ 3%	-21%[46.1 µM]	2%	-15%	.	3%	?	.
CCOC(=O)C1=C(C)OC(N)=C(C#N)C1c1ccc(OC)c(CSc2ccccn2)c1 (stereo not drawn)
→ -4%	.	?	-17%	-1%	-5%	-5%	-10%
CC(=O)Nc1cccc(/C(C)=N/NC(=O)c2cccs2)c1
→ -17%	11%[46.1 µM]	8%	13%	-17%	-5%	?	-1.1%
CC(C)n1c(C(=O)OCC(=O)NCc2ccc3c(c2)OCO3)cc2sccc21
→ -1%	12%	-11%	.	8%	-98%	-6%&-5%	2.4%
O=C1CCCCCN1C(=O)c1ccc(C(=O)N2CCCCCC2=O)cc1
→ 4%	13%	4%	-5%	7%	-3%	5%	-0.3%
COc1ccccc1CNC(=O)c1cc(C(C)=O)c[nH]1
→ 7%	2%[46.1 µM]	-1%	-17%	.	2%	-9%[46.1 µM]	.
CCc1noc(C)c1C(=O)OCC(=O)Nc1nc(-c2ccc(F)c(F)c2)cs1
→ 6%	?	4%	14µM*	.	.	?	.
Cc1cc(Cl)cc(C)c1OCCOCCNCc1ccccc1
→ -2%	.	1%	-27%	.	-49%	.	.
COCCCNCCCCOc1c(Cl)cc(C)cc1Br
→ -8%	-29%	3%	-28%	9%	-18%	?	-0.2%
Cc1ccc(-n2c(=O)c3sccc3n(CC(=O)NCc3ccco3)c2=O)cc1
→ 6%	-5%	4%	22%	-2%	20%	1%	0.8%
Nc1ccc(-c2nnn(Cc3ccccc3F)n2)cc1
→ -5%	-16%	-2%	76%[activator]	.	-12%	28%	.
C=CCSc1nnc(NC(=O)c2ccc(NC(C)=O)cc2)s1
→ -10%	.	0%	14%	.	2%	.	.
O=C(Nc1ccccc1C(=O)NCc1cccnc1)c1cccc([N+](=O)[O-])c1
→ -3%	15%	-1%	-21%	.	-1%	-26%[46.1 µM]	.
C/C(=N/NC(=O)CC1N=C(Cc2ccccc2)NNC1=O)c1cccnc1 (stereo not drawn)
→ 11%	-11%	0%	-19%	.	3%	7%	.
O=C(Nc1ccc(S(=O)(=O)N2CCOCC2)cc1)c1ccc2c(c1)S(=O)(=O)c1ccccc1C2=O
→ -14%	-10%	0%	0%	.	7%	11%[46.1 µM]	.
Cc1ccc(S(=O)(=O)NCc2cccnc2)cc1C(=O)N1CCCC1
→ 5%	5%	-2%	15%	.	8%	-6%	.
CC(NC(=O)C1CCCN(S(=O)(=O)c2cccc3nonc23)C1)c1ccccc1 (stereo not drawn)
→ -8%	22%	4%	.	-10%	-2%	4%	2.2%
COc1ccc(OC)c(-n2c(-c3cnccn3)n[nH]c2=S)c1
→ 0%[3.69 µM]	10%	12%	1%	3%	-5%	4%	3.8%
CN1CCN(C(=O)C2CCCN(c3ncnc4c3nc3n4CCCCC3)C2)CC1 (stereo not drawn)
→ 4%	?	3%	-4%	.	-12%	-4%[46.1 µM]	.
Cc1ccc(NC(=S)N(Cc2ccco2)C(C)c2cccs2)c(Cl)c1 (stereo not drawn)
→ -1%	?	-3%	10%	.	.	?	.
CCOC(=O)N1CCC(NC(=O)c2ccccc2C(=O)O)CC1
→ 1%	2%[46.1 µM]	0%	-18%	.	?	8%[46.1 µM]	.
NC(=O)C1CCCN(CCc2ccccc2)C1 (stereo not drawn)
→ 11%	8%	2%	.	0%	-3%	-5%	3.2%
COc1cccc(OC)c1C(=O)Nc1nc2c(s1)CCc1ccccc1-2
→ .	-2%[46.1 µM]	.	-22%	7%	.	.	0.1%
COc1cccc(CN2CCC(CO)(CC3CCCCO3)CC2)c1 (stereo not drawn)
→ 4%	6%	-2%	1%	.	6%	7%[46.1 µM]	.
Cc1ccc(C(=O)Nc2ccc(Oc3ccc(C(=O)O)c(C(=O)O)c3)cc2)cc1C
→ -2%	-11%	2%	?	-2%	12%	?	-1.2%
CCC1CCC/C1=N\NC(=O)CCC(=O)Nc1ccccc1Cl (stereo not drawn)
→ 15%	?	-1%	4%	-1%	9%	-2%	-0.7%
CCc1cc(S(N)(=O)=O)cc(CC)c1NC(C)=O
→ 6%	1%	0%	1%	.	-9%	?	.
COc1ccc(S(=O)(=O)Nc2ccc3oc(C)c(C(=O)O)c3c2)cc1
→ -3%	.	6%	-18%	1%	4%	-1%	-2.4%
COC(=O)c1cc(S(=O)(=O)N2CCN(c3cccc(Cl)c3)CC2)c[nH]1
→ -17%	.	0%	-8%	.	7%	.	.
COc1ccccc1C(=O)Nc1cc(Cl)ccc1-n1cncn1
→ -7%	-10%[46.1 µM]	-6%	-12%	.	-3%	-3%[46.1 µM]	.
Cc1cc(C(=O)N2CCN(c3cc(Cl)ccc3C)CC2)c2c(C)nn(-c3ccccc3)c2n1
→ .	14%[46.1 µM]	.	-21%	-15%	.	.	-7.4%
O=C(Cn1ncc2c3ccccc3n(Cc3ccccc3)c2c1=O)N1CCN(c2ccccn2)CC1
→ -6%	.	-4%	-24%	.	-14%	.	.
CNCCCOc1ccc(Cl)cc1C(C)(C)C
→ 6%	-26%[46.1 µM]	0%	-10%	.	-1%	?	.
COc1cc(C(=O)O)ccc1OCC(=O)N1CCOCC1
→ -2%	?	5%	0%	2%	-6%	7%	1.7%
Cc1ccccc1-c1nc2sc(C)c(C)c2c(=O)o1
→ -4%	.	3%	58%[activator]	.	15%	.	.
CCN(CC1CCCN(CCc2cccc(F)c2)C1)C(=O)c1cc(C)oc1C (stereo not drawn)
→ -2%	.	1%	14%	.	13%	.	.
Cc1oc2ncnc(N3CCCCC3)c2c1C(=O)N1CCN(c2ccc(Cl)cc2)CC1
→ .	3%[46.1 µM]	.	-23%	-16%	.	.	-1.1%
CN1CCN(Cc2nc3c(c(=O)n(C)c(=O)n3C)n2Cc2cccc3ccccc23)CC1
→ 9%	-25%	4%	.	3%	-1%	?	4.4%
Cc1ccccc1N(CC(=O)NC1CCCCC1)C(=O)CNC(=O)c1cccs1
→ 1%	7%	0%	30%	.	9%	-4%[46.1 µM]	.
COC(=O)c1ccc(OC)c(CSc2nnc(COc3ccccc3)o2)c1
→ 4%	-35%	?	-28%	0%	-41%	4%	-0.4%
CCN1CCN(C(=O)COc2ccc(S(=O)(=O)N3CCOCC3)cc2C)CC1
→ 13%	3%[46.1 µM]	1%	0%	.	2%	17%[46.1 µM]	.
